# High-throughput results deposited in PubChem BioAssay by several laboratories.
# RGS16-Gao = regulators of human RGS16-Galphao interaction | actives 0.38% (n = 220,000) | bead-based flow cytometry RGS16-Galphao binding, fluorescence; actives lie on both sides | binding response (% of control), % at 10 µM | O15492+P09471;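 active = below 25% or above 175%, edge rows of some plates excepted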;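 also: Galphao activated by GDP with aluminum fluoride before binding; 100% = wells without compound and 0% = beads without RGS; some results beyond the cut were filed as inactive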
# Target sequence (O15492 whole entry, looked up): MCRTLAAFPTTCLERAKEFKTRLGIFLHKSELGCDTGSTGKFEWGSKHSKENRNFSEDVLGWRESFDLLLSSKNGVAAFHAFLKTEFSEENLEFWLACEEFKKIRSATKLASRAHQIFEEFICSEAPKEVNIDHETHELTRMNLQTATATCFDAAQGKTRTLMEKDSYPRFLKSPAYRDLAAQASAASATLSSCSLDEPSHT
# Target sequence (P09471 whole entry, looked up): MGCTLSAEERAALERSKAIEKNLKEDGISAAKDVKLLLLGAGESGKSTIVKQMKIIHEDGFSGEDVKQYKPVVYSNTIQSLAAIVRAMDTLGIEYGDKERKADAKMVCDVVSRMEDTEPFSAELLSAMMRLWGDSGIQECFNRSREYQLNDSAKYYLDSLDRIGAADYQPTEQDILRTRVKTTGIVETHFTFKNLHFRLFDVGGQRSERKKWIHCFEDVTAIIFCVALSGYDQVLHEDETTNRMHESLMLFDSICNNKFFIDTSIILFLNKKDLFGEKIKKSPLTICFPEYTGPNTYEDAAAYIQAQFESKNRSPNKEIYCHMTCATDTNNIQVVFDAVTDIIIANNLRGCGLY
# PKD1 kinase inh = blocks activity of human protein kinase D1. AID 797. PKD1 kinase fluorescence polarization assay. actives 0.056% (n = 200,000). Q15139. inhibition, %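 (about 10 µM by stock and volumes)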;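 active = inhibition of 50% or more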;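 also: controls were vehicle for no effect and a reference inhibitor for full effect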
# Insulin prom inh = TRM-6 insulin promoter activity inhibition; TRM-6 cells (human fetal islet line), insulin promoter-eGFP reporter, imaging; reporter expression induced with tamoxifen; inhibition, % at 2 µM; actives 0.9% (n = 130,000); AID 1273;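 active = inhibition above the mean plus 3 SD, with well images judged a real hit on visual review, cut at about 60% in these data, passing the limit was not always enough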
# HSV augment = increases HSV replication in cells | HSV replication augmentation in cells, fold increase | maximum fold increase | actives 0.005% (n = 220,000) | AID 1956;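 active = peak rise of 1.5-fold or more in the series; tested in PC3 cells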;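 also: first round at 10 µM; read as green reporter fluorescence; hits show the peak of a series up to 25 µM; 1 = signal of infected wells without compound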
# GALR2 ag = agonists of human galanin receptor 2 (GALR2); GALR2-expressing cells, agonist activation read-out; activation, %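 (tested at 5 µM)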; actives 0.48% (n = 140,000); AID 803;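 active = above mean plus 3 SD of all compounds, about 5% in these data, not always enough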;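 also: 0% = vehicle buffer wells and 100% = reference agonist at full effect; tested in CHO reporter cells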
# Target sequence (O43603 whole entry, looked up): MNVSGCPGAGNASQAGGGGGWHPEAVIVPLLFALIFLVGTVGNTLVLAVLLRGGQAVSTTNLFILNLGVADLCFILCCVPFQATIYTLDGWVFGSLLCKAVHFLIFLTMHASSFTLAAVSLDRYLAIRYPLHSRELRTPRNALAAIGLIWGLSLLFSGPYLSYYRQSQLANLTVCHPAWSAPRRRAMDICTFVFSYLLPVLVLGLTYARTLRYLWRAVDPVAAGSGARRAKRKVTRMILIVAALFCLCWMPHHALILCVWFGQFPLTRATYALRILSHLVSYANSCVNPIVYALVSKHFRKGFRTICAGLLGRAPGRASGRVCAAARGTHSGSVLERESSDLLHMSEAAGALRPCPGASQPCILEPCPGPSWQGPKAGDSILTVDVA
# Insulin prom inh cell count = also measured in Insulin prom inh; calls as there; normalized cell count, %; measured here: cell count, toxicity; reference of the scale not given here;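 cells exposed to compound for 48 h; stained nuclei by imaging scaled within each plate; lower means fewer cells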
# HSV augment primary fold = also measured in HSV augment; calls as there; fold increase; compound at 10 µM; measured here: primary screen fold increase 10 uM; tested in PC3 cells;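 GFP signal in the first replicate; 1 = infected wells without compound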
# Numbers without * were called inactive; i = inactive; nt = not tested or not shown. This is a random part of the collection, and some 1.2% of all compounds hit somewhere here.
molecule	RGS16-Gao	PKD1 kinase inh	Insulin prom inh	Insulin prom inh cell count	HSV augment	HSV augment primary fold	GALR2 ag
C/C(=N\NC(=O)c1cccc(Cl)c1)c1cccc(NC(=O)C(C)C)c1	100	-19	-3	80	i	0.94	-2.1
Oc1c(Br)cc(Br)cc1/C=N/NC(=S)N[C@H]1CC2C=CC1C2 (stereo not given in full)	98	nt	nt	nt	i	1	nt
COc1ccc(OC)c(Nc2nc(=O)c3cccnc3s2)c1	91	0	29	80	i	0.95	nt
CCOC(=O)C(C)n1cnc2c(nnn2-c2ccc(C)cc2)c1=O (stereo not given)	93	-9	nt	nt	i	1.1	-0.2
CCOC(=O)c1[nH]c(C)c(C(=O)Nc2cc(Cl)ccc2C)c1C	84	-4	-119	10	i	0.64	-1.9
O=C(OCc1cccc(F)c1)c1ccc2c(c1)-c1ccccc1C2=O	105	6	nt	nt	i	0.68	-1.6
Cc1nnc(SCC(=O)N2CC(=O)Nc3ccccc32)n1C	108	-4	-9	74	i	0.88	-3.4
O=C(Nc1ccc(S(=O)(=O)Nc2nccs2)cc1)c1cc(-c2ccccc2Cl)nc2ccccc12	106	2	nt	nt	nt	nt	-3.6
N#C/C(=C\c1ccco1)C(=O)NCC1CCCO1 (stereo not given)	100	0	67	112	i	1.2	-0.3
CCc1ccc(C(C)NC(=O)c2cc(C)oc2C)cc1 (stereo not given)	97	-8	38	172	i	0.91	-1.8
O=C(Nc1nc(-c2ccc(Cl)cc2Cl)cs1)c1ccc(OCC2CCCO2)cc1 (stereo not given)	108	-4	10	121	i	0.97	-0.8
Cc1ccc(CC(=O)Nc2cccc([N+](=O)[O-])c2)cc1	98	-6	nt	nt	i	0.93	nt
COC(=O)Cc1ccc(NC(=S)Nc2ccccn2)cc1	99	-10	nt	nt	i	0.88	nt
COC(=O)N/N=C/c1cn(Cc2c(Cl)cccc2Cl)c2ccccc12	102	-23	nt	nt	i	0.96	-0.8
CCOc1ccc(OCCC(=O)Nc2ccc(F)cc2C)cc1	105	-4	7	100	i	0.95	nt
O=c1cc(CSc2ccc(Cl)cc2)nc(N2CCOCC2)[nH]1	103	-1	10	68	i	0.92	-2.4
Cc1ccccc1C(=O)NC(=S)N(C)CCc1ccccn1	99	-4	nt	nt	i	1	nt
CC(C)n1c(CCCO)nc2ccccc21	103	4	48	137	i	0.8	-1.6
COc1ccc(C(=O)/C=C/Nc2ccccn2)c(OC)c1	104	nt	nt	nt	i	0.94	nt
O=C(N/N=C1\CCS(=O)(=O)c2ccc(F)cc21)c1ccc(O)cc1	104	nt	nt	nt	i	0.89	nt
Cc1ccc(N2C(=O)C3Sc4[nH]c(=O)sc4C(c4ccccc4)C3C2=O)cc1 (stereo not given)	102	2	-21	139	i	0.83	-0.4
O=S(=O)(NCc1csc(-c2cccs2)n1)c1cccc(C(F)(F)F)c1	103	nt	nt	nt	i	1.1	nt
O=C(c1cccc(C(F)(F)F)c1)C1CCCN(C(=O)CN2CCCC2=O)C1 (stereo not given)	110	-3	19	119	i	0.93	nt
CCOc1ccc(NC(=O)C2=C(C)C(=O)OC23CCC(C)CC3)cc1 (stereo not given)	97	-1	nt	nt	i	0.67	-2.5
c1ccc2c(c1)ncn2Cc1nnc2sc(-c3ccc4c(c3)OCO4)nn12	86	-2	-6	93	i	1.1	-2.1
CCOc1ccc(NC(=O)N(CCC(C)C)C2CCN(C(C)=O)CC2)cc1	653	1	-13	115	i	1.1	-0.1
Cc1ccc(-c2nn(-c3ccccc3)cc2NC(=O)c2ccccc2)cc1	104	-6	7	102	i	0.99	-2.2
COc1ccc(OC(=O)c2cccc(S(=O)(=O)N3CCCC3)c2)cc1	79	-2	67	148	i	0.81	-0.1
C(=C\c1ccco1)/C=N/n1cnnc1	103	-15	7	70	i	0.87	-0.8
COC(=O)c1ccc(C(=O)OC)c(NC(=O)CCC(=O)O)c1	102	7	-71	113	i	0.83	-0.2
O=C(CN1CCOCC1)N1CCN(C(=O)CN2CCOCC2)CC1	nt	2	27	85	nt	nt	-1.3
CCOc1cc2c3c(c1)C1(Nc4ccccc4S1)C(=O)N3C(C)(C)CC2C (stereo not given)	101	-4	21	124	i	1.1	-2.0
Fc1ccc(-c2cc(C(F)(F)F)nc(-n3cccn3)n2)cc1	106	nt	nt	nt	i	1.1	nt
COc1ccc(C(=O)CSc2nc(SC)ns2)cc1OC	105	-5	47	92	i	0.87	1.1
COc1cc2oc(-c3ccc(O)cc3)cc(=O)c2c(O)c1OC	83	nt	nt	nt	i	0.94	nt
CC(C)(C)c1ccc(/C=C2\Oc3cc(OC(=O)N4CCOCC4)ccc3C2=O)cc1	99	-10	-3	106	i	1.1	-1.4
Nc1cc(=O)[nH]c(SCC(=O)Nc2ccc3c(c2)CCC3)n1	101	3	7	120	i	0.96	nt
O=C(CSc1nnc(-c2ccc(Br)cc2)n1C1CCCCC1)N1CCCC1	103	-4	-14	87	i	0.89	-2.0
O=C(Cn1c(C2CC2)nc2ccccc2c1=O)Nc1ccc(Br)cc1	98	2	nt	nt	i	0.87	0.1
O=C(Nc1ccc2oc(-c3ccccc3F)nc2c1)c1ccc2c(c1)OCCO2	86	3	18	182	i	0.83	-0.7
CC(C)CCn1c(=O)c2ccccc2c2ccccc2c1=O	102	4	-19	105	i	0.99	-1.0
O=C(O)c1ccc(CNCc2cccc(Cl)c2)cc1	97	-1	nt	nt	i	1.2	nt
CCN(CC)S(=O)(=O)c1cccc(NC(=O)COc2ccc(F)cc2Br)c1	98	-3	-18	148	i	1.1	nt
CC1CC1C(=O)OCc1cc(=O)n2cc(Br)ccc2n1 (stereo not given)	102	-15	nt	nt	i	1	0.1
O=S(=O)(Cc1ccccc1)c1nc2ccccc2n1Cc1ccccn1	101	18	nt	nt	i	1.1	nt
O=C(Nc1cc(C(F)(F)F)ccc1N1CCCCC1)c1ccc(Br)o1	104	-15	-36	237	i	0.67	-1.2
COC(=O)Cc1c[nH]c2ccc(OCC(O)CNC(C)C)cc12 (stereo not given)	99	-5	nt	nt	i	1.1	-0.9
O=C(NCC1CCCN(C(=O)CN2CCCCC2)C1)c1ccccc1Cl (stereo not given)	101	nt	nt	nt	i	1.1	nt
Cc1ccccc1-c1nnc(SCc2ccccc2)o1	109	3	5	98	i	0.72	1.3
CC(C)c1ccc(OCc2ccc(C(=O)N3CCN(c4ccccn4)CC3)cc2)cc1	98	-9	-9	75	i	0.91	-1.7
CCOC(=O)c1ccc(NC(=O)NC2CC3CCC(C2)N3)cc1 (stereo not given)	104	3	-33	138	i	0.85	nt
O=C1CCCN1CCCNC(=S)Nc1ccc(Br)cc1Cl	117	-2	24	74	i	1.1	nt
Cc1ccc(C)c(S(=O)(=O)N2CCN(CC(=O)N3CCc4ccccc4C3)CC2)c1	97	3	17	112	i	1	-0.1
CCOC(=O)c1cnc(SCC(=O)N2CCN(C(=O)c3ccco3)CC2)nc1N	104	-4	0	56	i	0.98	-1.8
COc1cccc(/C=C(/CC(=O)Nc2ccc(N3CCOCC3)cc2)c2nc3ccccc3s2)c1	97	-3	-37	75	i	0.92	-0.9
CCOc1ccc(N2CSC(=S)N(c3ccc(OCC)cc3)C2)cc1	98	nt	nt	nt	i	1.1	nt
COc1ccc(-n2c(CNC(=O)COc3ccccc3)n[nH]c2=S)cc1	-12	-1	-19	111	i	0.98	nt
COc1ccc(CN(C2CCCC2)S(=O)(=O)c2ccc(-n3cnnn3)cc2)cc1OC	110	-1	53	86	i	1	-0.5
FC(F)(F)c1nnc(-c2ccccc2)nc1N1CCOCC1	97	8	0	98	i	0.77	-0.3
Cc1cc(CN(C)C(=O)CC2C(=O)NCCN2Cc2c(F)cccc2Cl)on1 (stereo not given)	96	nt	nt	nt	i	0.81	nt

# Continued:
molecule	RGS16-Gao	PKD1 kinase inh	Insulin prom inh	Insulin prom inh cell count	HSV augment	HSV augment primary fold	GALR2 ag
O=C(OCn1nnc2ccccc2c1=O)c1ccc2c(=O)n3c(nc2c1)CCC3	98	-1	0	119	i	0.83	-3.7
Cc1cc(C)n(CC(=O)NC2CCCCC2)n1	108	0	-67	102	i	0.82	-1.1
CCC(C)[C@H](NC(=O)Nc1ccc2c(c1)OCCO2)C(=O)O (stereo not given in full)	99	0	-50	132	i	0.94	0.1
Cc1cc(C(=O)OCC(=O)Nc2cccc(S(=O)(=O)N(C)C)c2)c(C)o1	99	nt	nt	nt	i	0.91	nt
Cc1cc(NS(=O)(=O)c2ccc(Nc3nc(-c4sc(N)nc4C)cs3)cc2)no1	100	-14	-30	177	i	1	-1.2
NC(=S)N/N=C1\CCOc2ccc(Cl)cc21	100	nt	nt	nt	i	1.1	nt
COc1ccc(-c2ccc(SCC(=O)N3CCN(c4ccccc4)CC3)nn2)cc1	104	2	nt	nt	i	1	nt
Cc1cc([N+](=O)[O-])ccc1NC(=O)Nc1ccccc1F	101	5	nt	nt	i	1.1	nt
COC(=O)c1ccccc1S(=O)(=O)Nc1ccc2cn[nH]c2c1	106	-10	nt	nt	i	1	-2.7
Cc1ccccc1NC(=O)Cn1cnc2c1c(=O)n(C)c(=O)n2C	106	-10	-5	83	i	0.94	-2.2
O=C(O)CC1=C(O)C(=O)N(c2ccccc2)C1c1ccc(Cl)cc1 (stereo not given)	112	-12	-28	89	i	1.1	-0.2
CCOC(=O)Cc1csc(NC(=O)/C=C/c2ccccc2Cl)n1	100	nt	nt	nt	i	1.2	nt
O=C(NCCC1=CCCCC1)c1cnc2n(c1=O)CCS2	108	-1	-259	74	i	1	-1.9
Cc1[nH]nc(SCC(=O)Nc2cccc(O)c2)c1[N+](=O)[O-]	101	1	nt	nt	i	0.96	nt
O=C(Oc1cccc(/C=N/Nc2nc(N3CCOCC3)nc(N3CCOCC3)n2)c1)c1ccco1	112	1	nt	nt	i	0.91	-0.8

# Limited to RGS16-Gao, Insulin prom inh cell count and Insulin prom inh (2 entries from above):
SMILES | RGS16-Gao | Insulin prom inh cell count | Insulin prom inh
O=C(O)CC1=C(O)C(=O)N(c2ccccc2)C1c1ccc(Cl)cc1 (stereo not given) | 112 | 89 | -28
CCOC(=O)Cc1csc(NC(=O)/C=C/c2ccccc2Cl)n1 | 100 | nt | nt

# (cont.)
molecule	RGS16-Gao	PKD1 kinase inh	Insulin prom inh	Insulin prom inh cell count	HSV augment	HSV augment primary fold	GALR2 ag
COc1cc(C(=O)Nc2nc(-c3ccc(Cl)cc3)c(C)s2)ccc1OCC(=O)Nc1ccc(F)cc1	84	-1	nt	nt	i	0.69	-0.7
Cc1cc(C(=O)OCC(=O)NCCCN2CCCC2=O)c2ccccc2n1	103	-8	12	83	i	1.1	-3.8
Clc1ccc(Oc2cnc3ccccc3n2)cc1	105	0	0	114	i	0.84	-3.2
C=CCOc1cccc(NC(=O)c2ccccc2SC)c1	115	-5	-70	57	i	0.89	nt
O=C(COc1ccc(Cl)cc1Cl)Nc1c(-c2cccs2)nc2ccccn12	98	-3	6	139	i	1.1	0.7
CCOc1ccc(N(CC(=O)NC2CCCCC2)C(=O)CSc2nnc(COc3ccccc3)o2)cc1	102	0	-23	112	i	0.69	-1.8
O=C(Cn1cncc1-c1ccc([N+](=O)[O-])cc1)Nc1cccc2ccccc12	215	-2	nt	nt	i	1.1	-1.1
COc1cccc(CN(Cc2cccnc2)S(=O)(=O)c2ccc(-n3cnnn3)c(C)c2)c1	97	6	nt	nt	i	0.88	-0.1
Cc1ccc(S(=O)(=O)N(C)c2ccc(C(=O)N3CCN(Cc4ccc5c(c4)OCO5)CC3)cc2)cc1	100	-1	-38	105	i	0.85	-2.4
CCCc1cc(Nc2cccc(OCC)c2)n2ncnc2n1	99	-6	-21	158	i	1.1	-3.1
C=CCOc1ccc(CN(C)CC(=O)Nc2ccccc2[N+](=O)[O-])cc1	100	-2	nt	nt	i	1	nt
COc1ccc(CNC(=S)Nc2ccc(-c3ccccc3)cc2)cc1	100	-2	0	148	i	0.92	nt
O=C(CNC(=O)c1ccco1)OCC(=O)c1ccc2ccccc2c1	96	-4	-21	167	i	1	-1.0
C=CCNC(=S)Nc1ccc(N2CCOCC2)c(S(=O)(=O)Nc2ccccc2Cl)c1	96	1	nt	nt	i	0.88	nt
C[N+](C)(C)CCCCCC(=O)/C=N/O	98	-3	8	117	i	0.97	-1.2
COc1ccc(NC(=O)Cn2cnc3c(oc4nc5c(cc43)COC(C)(C)C5)c2=O)cc1	103	nt	nt	nt	i	0.98	nt
